Source: PubChem BioAssay
VDR inh – Inhibitors of the vitamin D receptor (VDR): qHTS; Potency, µM, inactives show max response, negative = inhibition, hits mostly inhibitors; AID 504847, 2011; 400,000 tested, 0.93% active; VDR-SRC2-3 peptide fluorescence polarization, 2 h; active = well fitted inhibition curve with a large enough effect; inconclusive = small, poorly fitted or top-dose-only effect, or another doubt; inactive = no such curve, though single readings can be large or run the other way; note: series mostly up to about 120 µM
Target sequence (P11473 whole entry, looked up): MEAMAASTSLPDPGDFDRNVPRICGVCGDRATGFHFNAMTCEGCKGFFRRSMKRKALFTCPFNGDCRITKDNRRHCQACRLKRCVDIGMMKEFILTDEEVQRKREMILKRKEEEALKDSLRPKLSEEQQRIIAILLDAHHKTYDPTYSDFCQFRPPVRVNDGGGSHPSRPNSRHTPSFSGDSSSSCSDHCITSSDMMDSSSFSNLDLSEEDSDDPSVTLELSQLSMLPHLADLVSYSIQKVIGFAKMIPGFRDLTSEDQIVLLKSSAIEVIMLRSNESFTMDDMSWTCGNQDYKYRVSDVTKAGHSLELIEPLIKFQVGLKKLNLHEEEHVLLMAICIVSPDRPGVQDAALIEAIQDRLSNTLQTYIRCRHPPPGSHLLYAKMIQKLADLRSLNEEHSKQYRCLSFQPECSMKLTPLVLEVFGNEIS
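Fluorescence polarization assay of small-molecule disruption of VDR binding to coregulator peptide SRC2-3. Compounds and controls pin-transferred, then read after 2 h incubation at ambient room temperature.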
An asterisk follows results filed as active; ? = inconclusive. % is set by controls: 0 for no effect and ±100 for the full control effect; potency is the fitted concentration of half-maximal effect.

VDR inh	smiles
4%	C=CCOC(=O)C(C(=O)Cc1ccccc1)c1ccccc1 (centres undefined)
-21%	CCOC(=O)C1C(=O)CC(C)(O)C(C(=O)OCC)C1c1ccco1 (centres undefined)
-8%	O=C1NCCN/C1=C\C(=O)c1ccc(Cl)cc1
6%	COC(=O)c1[nH]c(C)c(/C(O)=C2\C(=O)C(=O)N(CCN(C)C)C2c2cccc(OC)c2OC)c1C (centres undefined)
6%	COc1ccc(NC(=O)CC2C(=O)N(c3cccc(C)c3)C(=O)N2Cc2cccnc2)cc1 (centres undefined)
?	CCN(CC)c1ccc(NC(=O)c2cccn2-c2nnc(N3CCCCC3)s2)c(C)c1
-20%	CC(=O)Nc1ccc2c(c1)N(S(=O)(=O)c1cccs1)CCC2
-12%	O=C1CCCN1CCCNC(=S)Nc1ccc(F)cc1
3%	Cc1ccc(Oc2coc3cc(O)ccc3c2=O)cc1
-3%	C#CCOC(=O)Nc1cnccc1C(F)(F)F
-10%	C(=N\c1nc2ccccc2[nH]1)/c1cccs1
5%	COCCNC(=O)CSc1nc(-c2cc(OC)c(OC)c(OC)c2)[nH]c1-c1ccc(Cl)cc1
3%	COc1cc(=O)oc(CCC(C)O)c1C (centres undefined)
14%	Cc1c(NS(=O)(=O)c2ccc3c(c2)NC(=O)CC(=O)N3)cccc1[N+](=O)[O-]
-10%	CCN(c1ccccc1)S(=O)(=O)c1cc(C(=O)OC(C)C(=O)Nc2ccc3c(c2)OCCO3)ccc1C (centres undefined)
?	CCCCCCN1C=C/C(=C\C=C(C#N)C#N)c2ccccc21
-29%	O=c1c(CN2CCN(Cc3ccccc3)CC2)coc2ccc(Cl)cc12
-7%	Cc1ccc(OCC(=O)N2CCC(N3CC(C)CC(C)C3)CC2)cc1 (centres undefined)
19%	CCCCc1ccc(NC=C2C(=O)OC3(CCCCC3)OC2=O)cc1
-11%	S=c1[nH]nc(-c2ccc3ccccc3n2)n1-c1cc(Cl)cc(Cl)c1
-5%	Cc1ccc(-c2n[nH]c(=O)c3ccccc23)cc1S(=O)(=O)NC(C)(C)C
-21%	CCOC(=O)c1c(NC(=O)COc2ccc(OC)cc2)sc(C(=O)N(CC)CC)c1C
-8%	O=C(Nc1ccc(F)cc1)C1C(c2ccccc2)C1(Cl)Cl (centres undefined)
14%	CCc1ccc(NC(=O)Nc2nnc(N(C)C3CCCCC3)s2)cc1
-29%	C#CCOCCOCCOCCNc1nc(N2CCN(C(=O)[C@H](CCCCN)n3cc(CC(C)O)nn3)CC2)nc(N2CCN(C(=O)[C@H](Cc3ccc(O)cc3)n3cc(CCO)nn3)CC2)n1 (some centres undefined)
7%	COc1cccc(N=C(N)N)c1
-26%	CN1CCc2c(sc3c2C(=O)NC(c2ccco2)N3)C1 (centres undefined)
13%	Cc1ccccc1OCC(=O)Nc1cc(-c2cccc(Br)c2)nn1-c1ccccc1
-13%	Cc1cc(=O)[nH]c(SCc2cccc3ccccc23)n1
12%	CN(C)CCNC(=O)Cc1ncc(C(F)(F)F)cc1Cl
8%	Cc1ccc(OCC(=O)N2N=C(c3cccnc3)CC2(O)C(F)(F)F)cc1C (centres undefined)
-4%	CCN(CC)c1ccc(/C=N/NC(=O)c2cccc(S(=O)(=O)N3CCOCC3)c2)cc1
-7%	Cc1cc(C(=O)NCc2ccc3c(c2)OCO3)n(-c2ccccc2)n1
-4%	CCCn1c(=NC(=O)CS(=O)(=O)c2ccccc2)sc2cc(S(C)(=O)=O)ccc21
-12%	COc1ccc(N(C)C(=O)Cn2cnc3sc(C)c(S(=O)(=O)N4CCN(c5ncccn5)CC4)c3c2=O)cc1
8%	O=C(CNS(=O)(=O)c1ccccc1)OCc1cccc([N+](=O)[O-])c1
7%	Cc1ccc(/C=C/c2onc(C)c2S(=O)(=O)N2CCC(C(=O)Nc3cc(C)ccc3C)CC2)cc1
1%	Cc1cc(OCC(=O)Nc2cccc(S(=O)(=O)N3CCCCC3)c2)ccc1Cl
-18%	O=C(O)c1ccccc1C(=O)Nc1ccc(Oc2ccc3ccccc3c2)cc1
10%	Cc1ccccc1N1CC(c2nc3ccccc3n2Cc2ccc(Br)cc2)CC1=O (centres undefined)
0%	CCN(CC)S(=O)(=O)c1ccc2oc(SCc3ccc(F)cc3)nc2c1
8%	COc1ccc(NC(=O)N2CCC3(CC2)CCN(C(=O)c2cc(C(F)(F)F)cc(C(F)(F)F)c2)CC3)cc1
-5%	O=C(CC(=O)Nc1cccc(Cl)c1)N/N=C\c1ccccc1
?	CC(C)C[C@@H](CNCC(=O)[C@H](C)NC(=O)c1[nH]cnc1C(=O)N[C@H](CN)CC(C)C)NC(=O)c1nc[nH]c1C(=O)N[C@@H](C)C(=O)O
-11%	Cc1oc(-c2ccccc2F)nc1CS(=O)(=O)CC(=O)NCc1ccco1
-3%	COc1ccc(/C=C2\CCOC2=O)cc1
-27%	Cc1cccc(CS(=O)(=O)Cc2ccc(C(=O)NCCCN3CCOCC3)o2)c1
-2%	O=C(CCn1c(=O)oc2ccccc21)N1CCN(C(c2ccccc2)c2ccccc2)CC1
12%	CCC(Sc1nc2c(sc3ccccc32)c(=O)n1CCc1ccc(OC)c(OC)c1)C(=O)N(CC)CC (centres undefined)
23%	CC1=C(C(N)=O)C(c2cccs2)n2nc(-c3cccc(Cl)c3)nc2N1 (centres undefined)

3 successive entries from above, for reference:
VDR inh	smiles
-2%	O=C(CCn1c(=O)oc2ccccc21)N1CCN(C(c2ccccc2)c2ccccc2)CC1
12%	CCC(Sc1nc2c(sc3ccccc32)c(=O)n1CCc1ccc(OC)c(OC)c1)C(=O)N(CC)CC (centres undefined)
23%	CC1=C(C(N)=O)C(c2cccs2)n2nc(-c3cccc(Cl)c3)nc2N1 (centres undefined)

Returning to the listing with the 3 entries that preceded the break.
VDR inh	smiles
-2%	O=C(CCn1c(=O)oc2ccccc21)N1CCN(C(c2ccccc2)c2ccccc2)CC1
12%	CCC(Sc1nc2c(sc3ccccc32)c(=O)n1CCc1ccc(OC)c(OC)c1)C(=O)N(CC)CC (centres undefined)
23%	CC1=C(C(N)=O)C(c2cccs2)n2nc(-c3cccc(Cl)c3)nc2N1 (centres undefined)
2%	Cc1cc2c3c(c1)C1(C(=O)N3C(C)(C)CC2C)C(C#N)=C(N)Oc2cc(O)ccc21 (centres undefined)
6%	CCn1c(=O)c2c(nc3n2CCCN3c2cccc(C)c2)n(C)c1=O
21%	O=C(NC(Cc1ccccc1)C(=O)O)OCc1ccccc1 (centres undefined)
13%	CCOc1ccc(C(=O)NCc2ccc3c(c2)CCN3C(=O)c2ccc(C)cc2)cc1OCC
?	Cc1nn(-c2ccccc2)c(Cl)c1CN(C(=O)CCl)c1ccc(Cl)cc1
-5%	COc1ccc(OC)c(CNc2nc3ccc(C)cc3n3nnnc23)c1
-11%	O=C(CSc1nnc(-c2cccs2)o1)NCc1ccco1
?	O=S(=O)(Oc1ccccc1C(=S)N1CCOCC1)c1ccc(Cl)cc1
-2%	Cc1sc2ncnc(OCc3nnc(-c4cccs4)o3)c2c1C
-5%	Cc1[nH]nc(N2CCCCCC2)c1[N+](=O)[O-]
-15%	O=C(NN1C(=O)c2ccccc2NC1c1ccccn1)c1ccc([N+](=O)[O-])cc1 (centres undefined)
2%	COc1ccccc1NS(=O)(=O)c1cccc(C(=O)NNC(=O)C(NC(N)=O)C(C)C)c1 (centres undefined)
-3%	COC(=O)[C@H](Cc1ccccc1)NC(=O)O[C@@H]1C(=O)c2cc(OC)ccc2O[C@H]1c1cccc(OC)c1
-25%	CCOC(=O)c1c(C)n(-c2ccc(C)cc2)c2c(CC(C)=O)c(Br)c(OC)c(O)c12
-13%	CC(=O)c1cccc(N(CC(=O)Nc2ccc(S(=O)(=O)N3CCOCC3)cc2)S(C)(=O)=O)c1
-15%	O=S(=O)(Cc1ccc(Cl)cc1)c1ncc(CO)n1Cc1ccccc1
1%	CCn1c(Cn2nnc(-c3ccccc3)n2)nnc1SCC(=O)Nc1ccc(N(C)C)cc1
-18%	Cn1c(=O)[nH]c(=O)c2c1nc(CN(Cc1ccccc1)Cc1ccccc1)n2CCN1CCOCC1
-6%	COc1ccc(Cl)cc1C(=O)Nc1sc2c(c1C(=O)OC(C)C)CCCC2
-6%	CCOC(=O)c1noc2ncn(CC(=O)Nc3cccc(C(F)(F)F)c3)c(=O)c12
-2%	O=C(CNC(=O)c1ccc2c(c1)OCCO2)N=Nc1c(O)[nH]c2ccccc12
-3%	CCCCCN(C(=O)CCC(=O)OCC(=O)N(C)Cc1ccc(C)cc1)c1c(N)n(CCCC)c(=O)[nH]c1=O
-5%	COC(=O)CN1C(=O)[C@H]2[C@@H](/C=C/c3ccccc3)N3C(=O)CN(CCO)C(=O)[C@@]3(Cc3ccccc3)[C@H]2C1=O
-4%	O=C1C2CCCCN2C(=O)N1CCN1CCN(c2cccc(Cl)c2)CC1 (centres undefined)
11%	CC(OC(=O)CNC(=O)c1cccs1)C(=O)Nc1ccc(S(N)(=O)=O)cc1 (centres undefined)

Quoted at random: four compounds from above, in no set order.
VDR inh	smiles
1%	CCn1c(Cn2nnc(-c3ccccc3)n2)nnc1SCC(=O)Nc1ccc(N(C)C)cc1
-6%	CCOC(=O)c1noc2ncn(CC(=O)Nc3cccc(C(F)(F)F)c3)c(=O)c12
-13%	CC(=O)c1cccc(N(CC(=O)Nc2ccc(S(=O)(=O)N3CCOCC3)cc2)S(C)(=O)=O)c1
-25%	CCOC(=O)c1c(C)n(-c2ccc(C)cc2)c2c(CC(C)=O)c(Br)c(OC)c(O)c12

Three structures already listed, ordered by formula weight, ascending.
VDR inh	smiles
-12%	O=C1CCCN1CCCNC(=S)Nc1ccc(F)cc1
?	CCN(CC)c1ccc(NC(=O)c2cccn2-c2nnc(N3CCCCC3)s2)c(C)c1
-18%	Cn1c(=O)[nH]c(=O)c2c1nc(CN(Cc1ccccc1)Cc1ccccc1)n2CCN1CCOCC1

New compounds follow
VDR inh	smiles
-5%	CCCCCn1c(=O)[nH]c2cc(C(=O)Nc3ccc(F)c(F)c3)ccc2c1=O
-14%	COC(=O)C1N[C@@H]([C@@H](NC(=O)COc2ccccc2)C(=O)Nc2ccc(OC)cc2)SC1(C)C (some centres undefined)
3%	COc1ccc(C(=O)ON=C2c3ccccc3-c3ccccc32)cc1OC
-24%	NC(=O)c1ccc(NC(=O)COC(=O)c2c3c(nc4ccccc24)/C(=C\c2cccs2)CCC3)cc1
?	Cc1ccc(/C=C/C(=O)N2CCCC(C(N)=O)C2)o1 (centres undefined)
-11%	COc1ccc(Cl)cc1C(=O)OCC(=O)NCCNC(=O)COC(=O)c1cc(Cl)ccc1OC
4%	COc1cccc(OC)c1C(=O)OCC(=O)Nc1cccnc1Cl
8%	COc1ccc(Oc2cn[nH]c2-c2ccc(O)cc2O)cc1
-3%	CC(=O)Nc1cccc(NC(=O)CSc2cn(CC(=O)N3CCCC3)c3ccccc23)c1
4%	Oc1ccc(C[C@H]2CNC(=S)N2CC2CCCN2C[C@H](Cc2ccc(O)cc2)N2C[C@H](Cc3ccc(O)cc3)N(CC3CCCCCC3)C2=S)cc1 (some centres undefined)
3%	C#CCN1C(=O)C(O)(CC(=O)/C=C/c2ccco2)c2ccccc21 (centres undefined)
12%	Cc1ccc(CNC(=O)CN2C(=O)C3(SCC(=O)N3c3ccc(F)c(F)c3)c3ccccc32)cc1 (centres undefined)
?	COc1cc(C(=S)N2CCCC2)cc(OC)c1OS(=O)(=O)c1ccc(NC(C)=O)cc1
0%	N#Cc1cc2c(cc1NC(=O)CCn1cnnn1)OCO2
7%	CCOC(=O)N/N=C\c1sccc1C
6%	CCn1c(CC(=O)Nc2ccc(C)cc2)n[nH]c1=S
-3%	Cc1ccc(C(=O)Nc2ccccc2C(=O)NC(Cc2c[nH]c3ccccc23)C(=O)O)cc1 (centres undefined)
-6%	CCOc1ccc(/C=C2\SC(=O)N(c3ccc(O)cc3)C2=O)cc1OC
-1%	COc1ccc(N2CCN(c3cc(C)nc4nncn34)CC2)cc1
-9%	O=C(c1cc([N+](=O)[O-])cc([N+](=O)[O-])c1)N1CCOCC1
2%	COc1ccc(NC(=O)Cn2nc(C)c3c(C)n(-c4ccccc4)nc3c2=O)cc1OC
10%	O=C(CCCn1c(=O)c2sccc2n(Cc2ccc(Cl)cc2)c1=O)NCc1ccc2c(c1)OCO2
-17%	COc1ccc(N2CC(C(=O)Nc3nnc(SCc4cccnc4)s3)CC2=O)cc1 (centres undefined)
-16%	CCOc1ccc(C2CC(c3cccc(OC)c3)Nc3ncnn32)cc1 (centres undefined)
2%	COC(=O)CNC(=O)C1CCN(c2nc(C)cc(C)n2)CC1
6%	COc1ccc(NC(=S)NCC(c2cccnc2)N2CCOCC2)cc1 (centres undefined)
13%	Cn1c(Cc2ccc3c(c2)OCO3)nnc1SCC(=O)NC(C)(C)C
-1%	COc1cc([N+](=O)[O-])c2nccnc2c1
3%	O=C1NCc2c1c1c3ccccc3[nH]c1c1[nH]c3ccccc3c21
-8%	O=C(CC(=O)N1CCN(c2ccccn2)CC1)Nc1ccc2nc3n(c(=O)c2c1)CCCCC3
17%	CCCCc1cc(=O)oc2c(C)c(OCC(=O)N3CCCC3)ccc12
5%	CN1C(=O)C(CC(=O)Nc2ccc(Cl)cc2)N(Cc2ccco2)C1=S (centres undefined)
10%	CCOc1ccc(NC2=NCCC(=O)N2Cc2cccs2)cc1
6%	CCOc1ccc(Cc2nc(N)nc(N)n2)cc1
-15%	COc1cc(OC)c(OC)cc1/C=N/NC(=O)c1ccc2nc[nH]c2c1
-8%	CC(=O)c1c(C)[nH]c(C(=O)OCC(=O)NNC(=O)c2ccc([N+](=O)[O-])cc2)c1C
-16%	NNC(=O)CC1NCCN(Cc2ccccc2)C1=O (centres undefined)
2%	CN(C)C(=O)Nc1ccc(Oc2ccc(Cl)cc2)cc1

Some of the compounds tested. The share of hits here may be higher or lower than overall.
